# Source: PubChem BioAssay (several laboratories)
# HSV replic up: increases HSV replication in cells | HSV replication augmentation in cells, fold increase | maximum fold increase | 220,000 tested, 0.005% active;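 active = peak rise of 1.5-fold or more in the series; inconclusive = self-fluorescent or not available for retest; tested in PC3 cells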;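 note: first round at 10 µM; read as green reporter fluorescence; hits show the peak of a series up to 25 µM; 1 = signal of infected wells without compound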
# Insulin prom inh: TRM-6 insulin promoter activity inhibition | TRM-6 cells (human fetal islet line), insulin promoter-eGFP reporter, imaging; reporter expression induced with tamoxifen | inhibition, % at 2 µM | 130,000 tested, 0.9% active;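 active = inhibition above the mean plus 3 SD, with well images judged a real hit on visual review, cut at about 60% in these data, passing the limit was not always enough; inconclusive = inhibition over the cutoff but images rejected on review; inactive = inhibition not above the cutoff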
# PKD1 kinase inh: inhibitors of human PKD1 kinase | inhibition, %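 (about 10 µM by stock and volumes)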 | 200,000 tested, 0.056% active | PKD1 kinase fluorescence polarization assay | Q15139;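 active = inhibition of 50% or more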;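 note: controls were vehicle for no effect and a reference inhibitor for full effect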
# GALR2 agonist: activates the human galanin receptor 2; O43603; AID 803; GALR2-expressing cells, agonist activation read-out; 140,000 tested, 0.48% active; activation, %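 (tested at 5 µM)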;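 active = above mean plus 3 SD of all compounds, about 5% in these data, not always enough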;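 note: 0% = vehicle buffer wells and 100% = reference agonist at full effect; tested in CHO reporter cells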
# Target sequence (O43603 whole entry, looked up): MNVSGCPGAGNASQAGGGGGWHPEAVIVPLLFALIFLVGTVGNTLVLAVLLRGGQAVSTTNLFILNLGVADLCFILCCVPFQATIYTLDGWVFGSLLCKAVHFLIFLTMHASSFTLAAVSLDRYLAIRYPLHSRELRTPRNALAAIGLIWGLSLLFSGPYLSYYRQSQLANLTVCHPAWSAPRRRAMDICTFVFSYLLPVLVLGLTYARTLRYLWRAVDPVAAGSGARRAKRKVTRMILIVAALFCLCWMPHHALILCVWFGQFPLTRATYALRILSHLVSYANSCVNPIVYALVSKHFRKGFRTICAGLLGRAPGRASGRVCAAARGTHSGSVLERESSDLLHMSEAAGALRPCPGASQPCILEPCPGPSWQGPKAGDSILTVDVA
# RGS16-Gao: modulates binding between human RGS16 and Galphao | O15492+P09471 | bead-based flow cytometry RGS16-Galphao binding, fluorescence; actives lie on both sides | binding response (% of control), % at 10 µM | 220,000 tested, 0.38% active | AID 1441;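 active = below 25% or above 175%, edge rows of some plates excepted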;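 note: Galphao activated by GDP with aluminum fluoride before binding; 100% = wells without compound and 0% = beads without RGS; some results beyond the cut were filed as inactive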
# Target sequence (O15492 whole entry, looked up): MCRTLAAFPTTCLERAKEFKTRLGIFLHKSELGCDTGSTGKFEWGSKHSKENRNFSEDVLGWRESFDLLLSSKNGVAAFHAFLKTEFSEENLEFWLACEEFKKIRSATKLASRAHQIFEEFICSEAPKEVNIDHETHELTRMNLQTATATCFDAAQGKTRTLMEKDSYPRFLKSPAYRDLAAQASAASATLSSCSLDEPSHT
# Target sequence (P09471 whole entry, looked up): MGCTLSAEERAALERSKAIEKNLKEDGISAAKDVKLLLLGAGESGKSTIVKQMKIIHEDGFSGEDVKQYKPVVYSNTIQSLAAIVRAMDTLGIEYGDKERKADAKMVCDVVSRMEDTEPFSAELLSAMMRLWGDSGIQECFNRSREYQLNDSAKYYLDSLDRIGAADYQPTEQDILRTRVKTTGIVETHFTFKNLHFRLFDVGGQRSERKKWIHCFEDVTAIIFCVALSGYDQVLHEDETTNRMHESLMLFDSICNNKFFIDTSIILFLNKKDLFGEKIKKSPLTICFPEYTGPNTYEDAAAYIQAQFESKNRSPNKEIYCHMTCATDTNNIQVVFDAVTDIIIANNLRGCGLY
# Insulin prom inh cell count: second read-out of Insulin prom inh, no call of its own (marks repeat the call); normalized cell count, %; measured here: cell count, toxicity; reference of the scale not given here;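 cells exposed to compound for 48 h; stained nuclei by imaging scaled within each plate; lower means fewer cells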
# HSV replic up primary fold: second read-out of HSV replic up, no call of its own (marks repeat the call); fold increase; compound at 10 µM; measured here: primary screen fold increase 10 uM; tested in PC3 cells;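 GFP signal in the first replicate; 1 = infected wells without compound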
# * marks the source's active call; other numbers are inactive results; i = inactive; ? = inconclusive; · = not tested or not shown.
SMILES,HSV replic up,HSV replic up primary fold,Insulin prom inh,Insulin prom inh cell count,PKD1 kinase inh,GALR2 agonist,RGS16-Gao
CC1CCCN(C(=O)CSc2nnc3n(C4CCCC4)c(=O)c4ccccc4n23)C1 (configuration not stated),i,0.97,50,83,14,-2.7,100
COc1cc(CNCCc2ccccc2F)ccc1OCC(=O)N1CCCCC1,i,1,·,·,-9,·,99
COC(=O)Cn1nc(-c2ccccc2)n(-c2ccccc2)c1=S,·,·,21,78,-3,-1.4,102
O=C(COC(=O)c1cnccn1)NCc1ccc2c(c1)OCO2,i,0.92,·,·,-8,·,97
O=S(=O)(Cc1ccccc1)c1cnc2ccccc2n1,i,0.88,46,92,-2,-0.8,101
CCCc1cc(=O)[nH]c(SCC(=O)NC2CCCc3ccccc32)n1 (configuration not stated),i,0.87,·,·,·,·,105
C=CCc1c(C)nc(-c2ccccc2)nc1Nc1ccccc1O,?,·,4,88,-14,0.1,104
Cc1ccc(Cn2nnnc2CN2CCC(NC(=O)c3ccc(Br)cc3)CC2)cc1,i,1.1,-220,76,-8,-0.8,86
Cn1c(=O)[nH]c(=O)c2[nH]c(NCCCN3CCOCC3)nc21,i,1.1,52,93,6,-0.9,121
CC(CN1CCOCC1)c1ccccc1 (configuration not stated),i,0.79,30,62,-1,-3.1,101
CC(C)CNC(=O)COC(=O)CNC(=O)c1cc(Cl)cc([N+](=O)[O-])c1,i,1,-16,63,-4,0.0,60
COc1ccc(CCn2c(-c3ccco3)nc3ccccc3c2=O)cc1OC,i,1.1,22,79,-2,1.2,99
O=C(Cc1ccc(-n2c(=O)[nH]c3ccsc3c2=O)cc1)NCc1cccnc1,i,1,·,·,-3,-1.8,104
COc1ccc(CC(=O)N2CCN(C(=O)c3ccco3)CC2)cc1,i,0.84,43,119,-2,-2.5,91
Cc1nnc(SCC(=O)Nc2ccc3c(c2)OCCO3)n1CC1CCCO1 (configuration not stated),i,0.96,-36,97,-4,-0.7,115
O=C(CCN1CCN(C/C=C/c2ccccc2)CC1)Nc1ccc(Cl)cc1,i,0.87,-16,47,6,-2.1,93
CC1CN(S(=O)(=O)c2cccs2)CC(C)O1 (configuration not stated),i,0.85,14,55,-1,-0.4,103
O=C(CC1CCCC1)Nc1ccc2c(c1)CCC2,i,0.89,17,46,-3,-3.9,100
O=C(CNC(=O)c1ccccc1)N/N=C/c1cc(Br)ccc1O,i,0.63,35,80,5,-2.8,99
Nc1[nH][nH]c(=O)c1N=Nc1ccc2c(c1)OCO2,i,1.1,·,·,0,·,67

# An excerpt from above with just RGS16-Gao.
compound | RGS16-Gao
O=C(CC1CCCC1)Nc1ccc2c(c1)CCC2 | 100
O=C(CNC(=O)c1ccccc1)N/N=C/c1cc(Br)ccc1O | 99

# Following part.
SMILES,HSV replic up,HSV replic up primary fold,Insulin prom inh,Insulin prom inh cell count,PKD1 kinase inh,GALR2 agonist,RGS16-Gao
COCCCNC(=O)CCn1c(=O)c2ccccc2n(CC(=O)NCCC2=CCCCC2)c1=O,i,0.91,-79,63,1,·,104
CCOC(=O)N1CCc2c(sc3c2c(=O)n(Cc2ccccc2)c(=O)n3Cc2ccccc2F)C1,·,·,32,109,4,-0.9,101
N=C(c1ccc([N+](=O)[O-])cc1)N1CCCCCC1,i,0.94,·,·,3,·,107
CCC(C(=O)Nc1sc(C(N)=O)c(C)c1C(=O)OC)c1ccccc1 (configuration not stated),i,0.9,-107,47,-2,·,96
Cc1nnc(SCC(=O)NNC(=O)c2ccccc2)n1-c1ccccc1,i,1.1,30,64,-15,-2.2,52
O=C1CC(=O)CC(c2ccco2)C1,i,0.9,·,·,-5,-1.6,101
Cc1ccc(NC(=O)CSc2ncc(S(=O)(=O)c3ccccc3)c(=O)[nH]2)cc1C,i,1.2,·,·,3,-0.2,101
COC(=O)[C@@]1(Cc2ccc(OC)cc2)[C@H]2c3cc(C(=O)N(C)C)[nH]c3C[C@H]2CN1C(=O)c1ccccc1,i,0.77,30,95,3,-1.6,133
CC1CCC(C(=O)NC(C(=O)N2CCc3ccccc3C2)C(C)C)CC1 (configuration not stated),i,0.95,-36,109,1,-2.4,50
CCc1nc2ccccc2c(C(=O)OCC(=O)Nc2ccc(S(=O)(=O)N3CCOCC3)cc2)c1C,·,·,·,·,-7,1.0,101
COc1cccc(/C=C(/C#N)c2ccc(F)cc2)c1OCc1cccc(C(=O)O)c1,i,0.84,-5,146,-15,-0.3,100
COc1cccc(NC(=O)Nc2cc(C(=O)O)ccc2C)c1,i,0.91,-175,83,6,·,105
CCC(C)(C)NC(=O)C(C)OC(=O)c1nsc(Cl)c1Cl (configuration not stated),i,0.99,25,85,-8,-0.4,·
Cc1ccc(OCC(=O)N/N=C/c2cc([N+](=O)[O-])ccc2N2CCCCC2)cc1,i,1,-30,104,-3,-0.5,25
Cc1nc(CS(=O)(=O)c2ccccn2)sc1C(=O)NNC(=O)c1ccccc1,i,0.78,·,·,·,·,102
CN(C)c1ccc(C(CNC(=O)c2ccccc2)c2c[nH]c3ccccc23)cc1 (configuration not stated),i,0.88,25,108,1,-1.4,109
CCOc1ccccc1Cn1c(=O)oc2ccc(C)cc21,i,1,0,206,-2,-2.1,106
CC1(C)CC(=O)C(Sc2ccc(Br)cc2)=C(O)C1,i,0.99,45,88,-8,·,104
COc1ccc(-c2nnc(SCC(=O)NC(C)c3ccccc3)o2)cc1 (configuration not stated),i,0.74,·,·,-21,1.2,107
O=[N+]([O-])c1cccc(-c2noc(-c3cccs3)n2)c1,i,1.1,·,·,·,·,95

# Among those listed so far, these contain bromine.
SMILES,HSV replic up,HSV replic up primary fold,Insulin prom inh,Insulin prom inh cell count,PKD1 kinase inh,GALR2 agonist,RGS16-Gao
Cc1ccc(Cn2nnnc2CN2CCC(NC(=O)c3ccc(Br)cc3)CC2)cc1,i,1.1,-220,76,-8,-0.8,86
O=C(CNC(=O)c1ccccc1)N/N=C/c1cc(Br)ccc1O,i,0.63,35,80,5,-2.8,99
CC1(C)CC(=O)C(Sc2ccc(Br)cc2)=C(O)C1,i,0.99,45,88,-8,·,104

# The main list resumes, starting two compounds before the break.
SMILES,HSV replic up,HSV replic up primary fold,Insulin prom inh,Insulin prom inh cell count,PKD1 kinase inh,GALR2 agonist,RGS16-Gao
COc1ccc(-c2nnc(SCC(=O)NC(C)c3ccccc3)o2)cc1 (configuration not stated),i,0.74,·,·,-21,1.2,107
O=[N+]([O-])c1cccc(-c2noc(-c3cccs3)n2)c1,i,1.1,·,·,·,·,95
CC1=CC2=NC(=O)/C(=C\c3ccc(-c4ccc(Cl)cc4)o3)C(=N)N2O1,i,1,0,85,1,-1.7,429
CCCC(=O)Nc1ccc(C(=O)NCCc2ccc(F)cc2)cc1,i,0.95,·,·,-4,-0.2,99
COc1ccc2nc(SCC(=O)Nc3ccc(S(=O)(=O)N4CCCC4)cc3)c(C#N)cc2c1,i,1.3,-91,135,-3,-0.8,99
CN(CC(=O)N1CCN(c2ccc(F)cc2)CC1)S(=O)(=O)c1ccc(F)cc1,i,0.98,-79,170,-14,-4.2,100
CCSc1nnc(NC(=O)c2cc(-c3ccccc3O)n[nH]2)s1,i,0.87,·,·,·,·,101
COC(=O)c1ccccc1NCCO,i,0.94,·,·,·,·,104
COc1ccc(C2=NN3C(=O)c4c(ccc(OC)c4OC)C3C2)cc1 (configuration not stated),i,0.87,39,105,-4,-0.5,104
C/C(CC(=O)Nc1c(C)cc(C)cc1C)=N\NC(=O)OC(C)(C)C,i,1,-21,136,-9,-0.1,99
C/C(Cn1cnc([N+](=O)[O-])n1)=N\NC(=O)c1ccc(F)cc1,i,0.79,33,188,-2,-0.2,116
CSCCC(NC(=O)c1ccccc1Br)C(=O)N1CCC(C)CC1 (configuration not stated),i,1,·,·,5,·,107
COc1ccc(Cl)cc1NC(=O)CN1C(=O)CCS(=O)(=O)c2ccccc21,i,1.1,9,140,-5,-0.6,99
CN1CCN(C(=O)C2=C[C@H](c3ccc(Br)cc3)C[C@H](OCCCCO)O2)CC1,i,1.2,·,·,2,·,84
CCCOc1cccc(-c2cc(C(=O)NN)c3ccccc3n2)c1,i,1,7,63,-8,-1.0,24
O=C(O)c1cc(N/N=C/C=C/c2ccccc2[N+](=O)[O-])ccc1Cl,i,0.78,·,·,·,·,103
CCOCCCNC(=O)CN1C(=O)/C(=C/c2ccccc2)Sc2ccccc21,i,0.88,-313,67,5,-0.3,100
CN(c1ccccc1)S(=O)(=O)c1cccc(C(=O)OCC(=O)NCc2ccc3c(c2)OCO3)c1,i,1,·,·,2,0.8,100
Cc1cnn(-c2cc(N/N=C/c3ccc(F)cc3)ncn2)c1,i,0.93,·,·,12,-2.0,107
COc1ccccc1NC(=S)NC(=O)/C=C/c1cccs1,i,0.94,-15,66,-3,·,99
COc1ccc(S(=O)(=O)N2CCN(C)CC2)cc1Br,i,0.92,14,97,-8,-2.0,158
CCCN(Cc1cc2ccc(C)cc2[nH]c1=O)C(=O)c1cccnc1,i,0.68,18,61,-1,1.3,106
O=C(N/N=C/c1sc(=O)n(-c2ccccc2)c1Cl)c1ccncc1,i,1.2,14,129,-1,-2.1,76
O=C(c1cccnc1Cl)N1CCOCC1,i,0.94,12,97,5,·,105
O=C(Nc1ccc(Cl)cc1)c1cc2c(cc1O)[nH]c1ccccc12,i,0.95,·,·,·,·,101
CCn1nnnc1SCC(=O)Nc1nc2ccccc2s1,i,0.98,·,·,3,·,106
CCOC(=O)N1c2ccccc2C=CC1OCC (configuration not stated),i,0.72,-38,123,6,-0.2,104
COc1ccc(OC)c2[nH]c(=O)c(CCNC(=O)C(=O)c3c[nH]c4ccccc34)cc12,i,0.83,7,93,1,·,114
O=S(=O)(CC(CN1CCCCC1)N1CCCCC1)c1ccccc1 (configuration not stated),i,0.68,·,·,-3,·,106
O=c1c(Cl)cc(Cl)nn1-c1ccccc1,i,0.45,·,·,-9,-2.0,103
Cc1nc(N2CCN(C)CC2)c2c(C)c(C(=O)Nc3ccc(C)c(F)c3)sc2n1,i,0.59,-73,92,5,-0.1,151
Cc1cc(C)n2nc(SCc3nnc(-c4ccccc4Br)o3)nc2n1,i,1,17,155,0,·,100
CC(NC(=O)COc1ccccc1)C(=O)OCC(=O)c1cc2ccccc2o1 (configuration not stated),i,0.92,·,·,-5,-0.4,103
CCOC(=O)N1CCN(c2c(N3CCN(c4ccc(F)cc4)CC3)c(=O)c2=O)CC1,i,1,·,·,·,·,101
O=C(NCc1ccccc1)Nc1cccn(Cc2ccccc2F)c1=O,i,0.99,·,·,-6,-0.1,106
O=S1(=O)NC(=NCC(c2ccco2)N2CCCCC2)c2ccccc21 (configuration not stated),i,1.1,·,·,·,·,97
Cc1ccc(Cn2nnc3c(=O)n(Cc4cccc(C)c4)cnc32)cc1,i,1,0,111,4,-2.0,96
Cc1ccc(C)c(NC(NC(=O)c2cccnc2)C(Cl)(Cl)Cl)c1 (configuration not stated),i,1.1,-100,103,2,-2.5,110
O=C(Nc1ccnc(-c2cccnc2)n1)c1ccccc1Cl,i,0.98,·,·,0,-0.8,109
CCOc1ccccc1NS(=O)(=O)c1cccc2nsnc12,i,0.91,-6,59,2,-1.4,104
O=C(Nc1ccccc1)N1CCC(C(=O)N2CCN(S(=O)(=O)c3cccc(F)c3)CC2)CC1,i,0.85,62,38,7,-0.5,·
CCc1ccc(C(=O)NNC(=O)CCN2CCN(Cc3ccccc3)CC2)cc1,i,0.99,0,141,4,·,103
O=C1CCCC2=C1C(c1ccncc1)Nc1ccccc1N2 (configuration not stated),i,1.1,4,128,0,-2.2,98
CCOC(=O)Oc1ccc(C(=O)OCCCN(C)C)cc1OC,i,0.95,-355,37,4,-0.6,98

# An excerpt of the results above, as a working copy:
SMILES,HSV replic up,HSV replic up primary fold,Insulin prom inh,Insulin prom inh cell count,PKD1 kinase inh,GALR2 agonist,RGS16-Gao
CC(NC(=O)COc1ccccc1)C(=O)OCC(=O)c1cc2ccccc2o1 (configuration not stated),i,0.92,·,·,-5,-0.4,103
CCOC(=O)N1CCN(c2c(N3CCN(c4ccc(F)cc4)CC3)c(=O)c2=O)CC1,i,1,·,·,·,·,101
O=C(NCc1ccccc1)Nc1cccn(Cc2ccccc2F)c1=O,i,0.99,·,·,-6,-0.1,106
O=S1(=O)NC(=NCC(c2ccco2)N2CCCCC2)c2ccccc21 (configuration not stated),i,1.1,·,·,·,·,97
Cc1ccc(Cn2nnc3c(=O)n(Cc4cccc(C)c4)cnc32)cc1,i,1,0,111,4,-2.0,96
